Screens (PubChem)
WNV protease inh = inhibitors of WNV NS2B-NS3 protease, primary screen, biochemical, fluorogenic substrate; 65,000 compounds, 0.18% hits; Genome polyprotein (West Nile virus), P06935; fluorogenic substrate Ex360/Em465; active compounds read low; z-score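 (tested at a level between 10 and 100 µM)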;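 active = z-score at -3 or under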;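 also: score is relative to mean and spread of the compound wells of a plate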
Target sequence (P06935 1371-1501 limits assumed): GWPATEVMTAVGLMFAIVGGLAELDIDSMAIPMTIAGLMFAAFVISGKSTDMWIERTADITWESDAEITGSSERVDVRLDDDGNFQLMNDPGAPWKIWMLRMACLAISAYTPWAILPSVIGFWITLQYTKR
Target sequence (P06935 1502-1679 limits assumed): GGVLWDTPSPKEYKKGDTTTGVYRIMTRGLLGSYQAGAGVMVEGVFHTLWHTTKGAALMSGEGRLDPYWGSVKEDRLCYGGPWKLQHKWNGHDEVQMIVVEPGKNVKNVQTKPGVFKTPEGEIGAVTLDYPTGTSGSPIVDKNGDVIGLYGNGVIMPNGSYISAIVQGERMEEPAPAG
MT1-MMP promoter = inhibitors of MT1-MMP promoter transcription, cell-based, luciferase reporter, luminescence (AID 618); MT1-MMP promoter luciferase reporter cells, luminescence; calls from a first round at 10 µM; hits with a dose series show EC50 in µM; 87,000 compounds, 0.62% hits;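 active = over half of the reporter light lost at 10 µM or EC50 under 50 µM; inactive = the rest and hits that failed the dose series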;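 also: actives suppress MT1-MMP promoter-driven transcription so potencies describe inhibitors; HT1080 fibrosarcoma cells; overnight exposure; toxic or luciferase-blocking compounds were not removed from the actives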
Hsc70 ATP site = Hsc70 inhibitors, probe displacement, primary screen, biochemical, fluorescence polarization (AID 568). Hsc70 fluorescence polarization, probe displacement; higher % means a stronger effect; strong numbers were not always called active. displacement, % at 20 µM; hits with a dose series show IC50 in µM. 83,000 tested, under 10 active;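 active = displacement above 50% without optical interference and an IC50 on retest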;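 also: ATPase domain with a fluorescein-tagged ATP probe; 0% = vehicle and 100% = excess ADP; read after one hour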
Active calls of the source: *; i = inactive; nt = no result given. This is a subset; rates above refer to the full screens.

Value order – WNV protease inh | MT1-MMP promoter | Hsc70 ATP site
- CCOc1cccc2c1OC1(C)CC2NC(=O)N1c1cccc(Cl)c1 (stereo not given)
→ -1.82 | i | -5.3%
- O=C(N1CCOCC1)C12CC3CC(C1)CC(C(=O)N1CCOCC1)(C3)C2
→ -0.87 | i | 3.6%
- COc1ccc(-n2ncc3c(N4CCCc5ccccc54)ncnc32)cc1
→ 0.26 | i | -0.9%
- O=C(Nc1cccnc1)c1cc(-c2ccccc2)on1
→ nt | i | 6.2%
- CN(C)Cc1cc(C(C)(C)C)c(O)c(C(C)(C)C)c1
→ -0.55 | i | -0.4%
- COc1ccc(NC(=O)c2ccc(C(=O)c3ccccc3)o2)cc1
→ 0.8 | i | -1.5%
- Cc1cc2nc3c(c(=O)n2[nH]1)CCCC3
→ -0.88 | i | -5.4%
- CCn1c(=N)n(CC(O)COc2cccc(C)c2)c2ccccc21 (stereo not given)
→ -0.48 | i | 3.7%
- COc1ccc(OC)c(CNC(=O)Cc2c(C(=O)O)[nH]c3ccccc23)c1
→ -0.67 | i | 2.2%
- O=C(Nc1ccc(N2CCOCC2)c(Cl)c1)c1cccnc1
→ -0.15 | i | 3.8%
- N#Cc1c(N)c(C(=O)c2ccc(Cl)cc2)n2c1CCC2
→ 0.07 | i | -2.8%
- COc1ccc(NC(=O)CNS(=O)(=O)c2ccc(Cl)cc2)cc1
→ nt | i | 5.3%
- O=C(c1ccccc1)c1ccccc1C(=O)N1CCOCC1
→ 1.99 | i | 0.8%
- CCc1ccc(-c2nnn(Cc3nn[nH]n3)n2)cc1
→ 1.08 | i | -6.6%
- CS(=O)(=O)N(CC(=O)N1CCN(c2ccccc2)CC1)c1ccc(Cl)c(C(F)(F)F)c1
→ nt | i | -4.8%
- Cc1ccc(S(=O)(=O)N2CCC(C(=O)O)CC2)cc1C(=O)O
→ -0.05 | i | 6.0%
- C=CCn1c(-c2ccc(OC)c(OC)c2)n[nH]c1=S
→ -0.84 | i | -3.3%
- CCc1c(C)nc(SCC(=O)CC(=O)OC(C)C)c(C#N)c1C
→ -0.02 | i | 0.8%
- COC(=O)c1ccccc1NC(=O)c1cc2n(n1)C(C(F)F)CC(C(F)F)N2 (stereo not given)
→ 0.2 | i | -3.8%
- CCOC(=O)CSc1nc(C2CC2)nc2ccccc12
→ -0.45 | i | -15.3%
- Cc1[nH]c2ccccc2c1C(=O)CN1CCN(C2CCCCC2)CC1
→ -0.28 | i | -3.7%
- CC(C)NC(=O)c1cc2ccccc2o1
→ nt | i | -3.4%
- CCOC(=O)c1c(C)[nH]c(C(=O)OCc2c(C)noc2C)c1C
→ 0.72 | i | -3.2%
- CCOC(=O)c1ccc(CC(=O)c2ccc(O)cc2O)o1
→ nt | i | 1.5%
- Cc1cccc(-c2noc(CCCC(=O)Nc3ccc(C(N)=O)cc3)n2)c1
→ nt | i | -3.2%
- c1cncc(Oc2cccc(Oc3cccnc3)c2)c1
→ 0.03 | i | -7.3%
- COc1cccc(-n2c(C)c(C(C)=O)c(C(C)=O)c2C)c1
→ 0.35 | i | 0.8%
- CCOC(=O)CNc1nc(-c2ccncc2)nc2ccccc12
→ 0.84 | i | -2.6%
- O=C(Oc1ccc2c3c(c(=O)oc2c1)CCC3)c1ccco1
→ nt | i | 2.3%
- Cc1ccc(/C(N)=N/OC(=O)c2ccco2)cc1
→ nt | i | 1.7%

4 structures from above, arranged by formula weight, low to high.
Value order – WNV protease inh | MT1-MMP promoter | Hsc70 ATP site
- Cc1ccc(/C(N)=N/OC(=O)c2ccco2)cc1
→ nt | i | 1.7%
- c1cncc(Oc2cccc(Oc3cccnc3)c2)c1
→ 0.03 | i | -7.3%
- COc1cccc(-n2c(C)c(C(C)=O)c(C(C)=O)c2C)c1
→ 0.35 | i | 0.8%
- CS(=O)(=O)N(CC(=O)N1CCN(c2ccccc2)CC1)c1ccc(Cl)c(C(F)(F)F)c1
→ nt | i | -4.8%

Part of the list above, with each value named:
CCc1c(C)nc(SCC(=O)CC(=O)OC(C)C)c(C#N)c1C
- WNV protease inh: -0.02
- MT1-MMP promoter: i
- Hsc70 ATP site: 0.8%
CS(=O)(=O)N(CC(=O)N1CCN(c2ccccc2)CC1)c1ccc(Cl)c(C(F)(F)F)c1
- WNV protease inh: nt
- MT1-MMP promoter: i
- Hsc70 ATP site: -4.8%

(listing goes on)
Value order – WNV protease inh | MT1-MMP promoter | Hsc70 ATP site
- Cc1cc(C(F)F)n2ncc(C(=O)O)c2n1
→ nt | i | 9.7%
- O=C(NCC1CCCO1)c1ccc2c(=O)n(CCc3ccccc3)c(=O)[nH]c2c1 (stereo not given)
→ -1.07 | i | -1.6%
- O=S1(=O)CCC(NS(=O)(=O)c2cccc3cccnc23)C1 (stereo not given)
→ -0.83 | i | -2.1%
- N=c1c(S(=O)(=O)c2ccccc2)cc2c(=O)n3ccccc3nc2n1CC1CCCO1 (stereo not given)
→ -0.14 | i | -36.6%
- COc1cc(NC(=O)Cc2ccccc2)ccc1NC(=O)c1ccco1
→ -0.3 | i | 0.2%
- Nc1nnc(Cc2ccc(Cl)cc2)s1
→ 0.69 | i | 0.6%
- Cc1cc(=O)n2[nH]c(-c3cccnc3)nc2n1
→ nt | i | 1.6%
- O=C(Nc1nc2c(s1)CCCC2)c1cccs1
→ -0.75 | i | -5.5%
- Cc1cccn2c(=O)c3cc(C(=O)NC4CCCCC4)c(=N)n(CCN4CCOCC4)c3nc12
→ -0.68 | i | -9.1%
- O=C(c1cc(-c2ccccn2)nc2c(Cl)cccc12)N1CCN(C(=O)C2CCCO2)CC1 (stereo not given)
→ 0.01 | i | 0.3%
- Cc1nc(SCC(N)=O)[nH]c(=O)c1CCC(C)C
→ nt | i | -2.2%
- O=C(CCNc1ccc(F)cc1)c1ccco1
→ -0.55 | i | 1.9%
- CCc1nc(SCC(=O)Nc2c(C)n(C)n(-c3ccccc3)c2=O)n[nH]1
→ -0.8 | i | 5.0%
- O=C(COc1ccc(S(=O)(=O)N2CCOCC2)cc1)Nc1ccccc1C(F)(F)F
→ nt | i | 0.0%
- CC(=O)c1nnn(-c2nc(N)nc(N(c3ccccc3)c3ccccc3)n2)c1C
→ 0.18 | i | 0.8%
- Cc1ccc(C(c2sc3nc(C)nn3c2O)N2CC(C)OC(C)C2)cc1 (stereo not given)
→ 0.34 | i | -5.1%
- CC(=O)c1cccc(OCCN2C(=O)NC(C)(C)C2=O)c1
→ -0.19 | i | 3.3%
- COc1ccccc1C1N(c2ccc(Cl)cc2)C(=O)C2CCCN21 (stereo not given)
→ 0.52 | i | -20.1%
- CC1CCCN(S(=O)(=O)c2ccc(NC(=O)Cn3nnc(-c4ccccc4F)n3)cc2)C1 (stereo not given)
→ -0.57 | i | -6.2%
- CCn1c(CCn2ccnc2C)n[nH]c1=S
→ 0.69 | i | 3.3%
- Cc1oc(-c2cccs2)nc1CS(=O)CC(=O)NC1CCCCCC1 (stereo not given)
→ -0.45 | i | -5.8%
- C=C(C)CSc1nc2nc(C)cc(C)n2n1
→ 0.44 | i | 7.4%
- Cc1cccc(NC(=O)Cn2c(=O)n(Cc3ccco3)c(=N)c3c4c(sc32)COC(C)(C)C4)c1
→ -0.00295 | i | -6.2%
- CC(=O)NCC(=O)OCN1C(=O)c2ccccc2C1=O
→ -0.29 | i | -1.1%
- Cc1nn(CC(=O)Nc2ccc3c(c2)nc(CN2CCCCC2)n3C)c(=O)c2ccccc12
→ 0.79 | i | 2.0%
- COC(=O)C1=C(N)Oc2cc(C)n(Cc3cccnc3)c(=O)c2C1c1cc(OC)ccc1OC (stereo not given)
→ -1.15 | i | 3.9%
- COc1ccc(C2C(C#N)=C(N)OC(C(C)(C)C)=C2C#N)cc1OC (stereo not given)
→ 0.84 | i | -6.4%
- CCn1ncc(Br)c1C(=O)Nc1sc2c(c1C(N)=O)CCC2
→ -0.09 | i | 0.9%
- O=C(COC(=O)c1cccnc1SCC(=O)NCc1ccccc1)NCc1ccccc1
→ nt | i | -5.0%
- COc1ccc(-c2nc(C)c(C(C)=O)n2O)cc1OC
→ -0.81 | i | 2.7%
- O=C(CN1CCN(S(=O)(=O)c2ccc(Br)cc2)CC1)Nc1ccc(F)cc1F
→ 0.53 | i | 2.0%
- Cc1cccc(OCCn2c(=O)n(C)c3ccccc32)c1
→ 0.68 | i | 5.9%
- CN(CCNC(=O)c1cc2c(=O)n(C)c3ccccc3c2n1C)Cc1ccccc1
→ -0.65 | i | 0.7%
- C=CCOc1ccc(C2c3c(oc4ccccc4c3=O)C(=O)N2c2ccccn2)cc1OCC (stereo not given)
→ 0.38 | i | -6.1%
- CCCn1c(SCC(=O)Nc2nnc(CC)s2)nnc1-c1ccco1
→ -0.02 | i | -0.7%
- Cc1ccc(OCCn2c(=O)sc3ccccc32)cc1
→ nt | i | 4.4%
- COc1ccc(Cn2nnnc2CN2CCC(c3nc4ccccc4s3)CC2)cc1
→ 0.35 | i | -8.0%
- CCOC(=O)NCC(C)(C)CNC(=O)OCC
→ -0.03 | i | -2.0%
- O=C(c1cc(F)c(F)cc1Cl)N1CCCCC1
→ 1.01 | i | 0.1%
- CCCCn1c(=N)n(CC(O)COc2cccc(C)c2)c2ccccc21 (stereo not given)
→ -0.5 | i | -3.6%
- c1ccc(Cn2ncc3c2ncn2c(-c4ccncc4)nnc32)cc1
→ 0.86 | i | 3.6%
- Cn1c(=O)n(Cc2ccccc2)c(=O)c2c1nc1n2CCS1
→ -0.04 | i | -9.3%
- Cc1occc1C(=O)NCCCc1ccccc1
→ -0.64 | i | 4.7%
- COc1cccc(CNc2ccc(F)c(Cl)c2)c1OC
→ nt | i | 3.9%
- O=C(c1ccccc1-c1ccccc1)N1CCN(c2ccccn2)CC1
→ -0.2 | i | 3.3%
- CCOC(=O)c1csc(NC(=O)CSc2nnnn2-c2ccc3c(c2)OCCO3)n1
→ nt | i | -2.6%
- Cc1csc(SCC(=O)Nc2cc(C(C)(C)C)nn2-c2ccccc2)n1
→ 1.81 | i | -0.9%
- CC1(C)CC(=O)C2=C(C1)N(Cc1cccnc1)C(=O)C2(NC(=O)C1CC1)C(F)(F)F (stereo not given)
→ -0.53 | i | 0.7%
- CCCCn1c(NC(C)CC)nc2c1c(=O)[nH]c(=O)n2C (stereo not given)
→ 1.59 | i | 0.3%
- Cc1c(C(=O)NCc2cccnc2)oc2ccc(S(=O)(=O)N3CCC4(CC3)OCCO4)cc12
→ nt | i | 0.6%
- CCOC(=O)N1CCN(C(=O)c2cnc3n(c2=O)CCS3)CC1
→ 0.63 | i | -4.0%
- COc1ccc(C(=O)N2CCN=C2SCc2cccnc2)c(OC)c1
→ 0.2 | i | 1.0%
- CCOc1ccc(C(=O)Nc2ccc3c(c2)OCCO3)cc1OC
→ 1.14 | i | 6.9%
- COc1ccccc1NC(=O)Cn1cc(C#N)c2ccccc21
→ nt | i | -0.9%
- Nc1nc(N2CCOCC2)nc2ccccc12
→ 0.16 | i | -4.3%
- CC(C)(C)OC(=O)N1CCOCCOCCN(C(=O)OC(C)(C)C)CCOCCOCC1
→ 0.08 | i | -3.5%
- CCNC(=O)c1ccc(C2SCC(=O)N2Cc2ccco2)cc1 (stereo not given)
→ nt | i | -3.2%
- COc1ccc(Cc2nn[nH]n2)cc1
→ nt | i | 5.3%
- Cc1[nH]c2ccc(C(=O)O)cc2c1C
→ nt | i | -3.9%
- Cc1nn(-c2ccccc2)c2sc(-c3nnc(SCC(=O)O)o3)cc12
→ nt | i | -3.9%

(list continues)
Value order – WNV protease inh | MT1-MMP promoter | Hsc70 ATP site
- COc1ccc(NC(=O)CCC2CCCC2)cc1OC
→ 0.57 | i | -1.0%
- COC(=O)c1ccc(NC(=O)C2C3CCC(C3)C2C(=O)O)cc1 (stereo not given)
→ 1.03 | i | 0.2%
- O=C(NCc1ccco1)c1ccccc1NS(=O)(=O)c1ccc2c(c1)OCCO2
→ 0.65 | i | -1.3%
- N#Cc1ccc(Oc2cccc(C(=O)O)c2)cc1C#N
→ -1.11 | i | -1.6%
- COc1ccc(F)cc1CN1CCN(C(=O)CCC(=O)Nc2nnc(C(C)C)s2)CC1
→ -0.6 | i | 1.9%
- CCN(CC)CCCNC(=O)C1c2ccccc2C(=O)N(C)C1c1ccc(OC)cc1 (stereo not given)
→ -0.61 | i | -1.9%
- CCCOc1ccc(N2C(=O)CC(NCCCN3CCC(C(N)=O)CC3)C2=O)cc1 (stereo not given)
→ -0.07 | i | 1.4%
- CCC(C(=O)NC1CCCC1)N(C(=O)Cn1nnc(-c2cccs2)n1)c1cnc2ccccc2c1 (stereo not given)
→ nt | i | 2.5%
- CC1(C(=O)O)CCC(C(=O)NC2CCCCCC2)C1(C)C (stereo not given)
→ -0.84 | i | -4.3%
- Cc1nc(SCCCSc2n[nH]c(C)n2)n[nH]1
→ -1.41 | i | -5.1%
- O=C1CN=C(Nc2ccccc2Cl)N1Cc1ccc2c(c1)OCO2
→ nt | i | 4.4%
- Cc1nn(-c2ccccc2)c2c1C1(C(=O)N(C)c3ccccc31)N(c1ccccc1)C(=O)N2 (stereo not given)
→ 0.46 | i | 7.6%
- Cc1csc(NC(=O)CN(C)S(=O)(=O)c2cccc3cccnc23)n1
→ 0.49 | i | -0.8%
- CC(C)OC(=O)CCCN1C(=O)c2ccc(N)cc2C1=O
→ 0.13 | i | 7.8%
- OC(COc1ccccc1)Cn1cc(Br)cn1 (stereo not given)
→ -0.74 | i | 3.0%
- CC(=O)N1CCc2cc(S(=O)(=O)NC(CC(C)C)C(=O)Nc3cc(C(=O)O)ccc3C)ccc21 (stereo not given)
→ -1.73 | i | -1.2%
